D2 ag – human D2 receptor agonism in beta-arrestin assay; DiscoveRx PathHunter D2 beta-arrestin, luminescence, 90 min; 100% = 57 uM dopamine signal; activation, % (concentration not given with the values); 360,000 compounds, 0.084% hits; AID 624465; in the data active = activation above about 40%; inconclusive = about 15% to 40%; inactive = below about 15%; also: the text of the record calls up to 30% inactive
Target sequence (P14416 whole entry, looked up): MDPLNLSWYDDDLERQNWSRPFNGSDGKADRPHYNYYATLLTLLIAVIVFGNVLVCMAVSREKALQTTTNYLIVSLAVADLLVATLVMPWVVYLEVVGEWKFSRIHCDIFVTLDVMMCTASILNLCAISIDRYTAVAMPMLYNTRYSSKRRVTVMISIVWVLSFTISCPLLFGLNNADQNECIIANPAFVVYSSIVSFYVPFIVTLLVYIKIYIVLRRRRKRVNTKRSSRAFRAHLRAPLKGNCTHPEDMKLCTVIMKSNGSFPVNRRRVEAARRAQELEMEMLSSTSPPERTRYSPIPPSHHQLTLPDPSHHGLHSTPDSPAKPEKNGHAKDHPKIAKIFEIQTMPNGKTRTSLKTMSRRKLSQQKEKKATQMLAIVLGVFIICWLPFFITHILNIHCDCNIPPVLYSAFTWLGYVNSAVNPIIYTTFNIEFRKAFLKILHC
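DiscoveRx PathHunter D2 beta-arrestin cells (2,100/well) attached overnight, then compound-stimulated 90 min at 37 C in HBSS/10 mM HEPES/0.1% Tween-20 buffer; beta-galactosidase complementation read by luminescence after 1 h at ambient temperature. Dopamine 57 uM final (EC100) as control.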
PINK1 expr mod – PINK1 expression modulation | 410,000 compounds, 0.2% hits | Potency, µM (top dose mostly 76.6 µM), without a hit: at the highest dose activation (PINK1 increase), most hits filed as activators | AID 624263 | PINK1 immunofluorescence, high-content cytometry, 24 h; active = well fitted activation curve with a large enough effect; inconclusive = small, poorly fitted or top-dose-only effect; inactive = flat fitted curve, though single readings scatter; cell line not stated here;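 also: potency is read from the fitted curve at half-maximal effect; % of control where 0% means no effect; nearly all actives have a fitted effect of over 65% in size; a mitochondrial uncoupler was the plate control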
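Cells are seeded, rested 12 hours, then given compound at five concentrations or DMSO for 24 hours. After fixation, blocking and antibody staining, PINK1 amount and mitochondrial localization are scored; CCCP serves as control.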
CtBP-E1A blk – blocks the CtBP interaction with E1A; AlphaScreen GST-E1A/His-CtBP binding, 1536-well; stronger effect = lower value; control for the full effect not named in the record; activity change, % (test concentration not listed); 340,000 compounds, 0.49% hits; AID 651724; in the data active means activity change below about -65%; inconclusive means about -30% to -65%; inactive means above about -30%; also: % is scaled to controls: 0 for no effect and ±100 for the full control effect
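Steps: dispense buffer (Tris pH 8.0, NaCl 300 mM, TCEP 1 mM, BSA, Tween 20); add 5X protein mix (GST-E1A, His-CtBP, 125 nM each); pin 23 nL compound; 2 h at 37 °C, dark; add 5X beads (50 ug/mL); 1 h; read.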
TRPML1 blocker – human mucolipin-1 channel inhibition. 390,000 compounds, 0.02% hits. TRPML1-inducible cells, Ca2+ dye fluorescence, FDSS; stronger effect = lower value; inhibition of EC80 agonist-evoked calcium signal. activity change, negative = inhibition, % (no concentration beside the values). Q9GZU1; in the data active means activity change below about -50%; inconclusive means about -30% to -50%; inactive means above about -30%;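 also: stimulus is agonist 54-4 at its EC80 concentration; % is scaled to controls: 0 for no effect and ±100 for the full control effect; compound concentration not given in the record; the text of the record puts the active cut at -80%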
Target sequence (Q9GZU1 whole entry, looked up): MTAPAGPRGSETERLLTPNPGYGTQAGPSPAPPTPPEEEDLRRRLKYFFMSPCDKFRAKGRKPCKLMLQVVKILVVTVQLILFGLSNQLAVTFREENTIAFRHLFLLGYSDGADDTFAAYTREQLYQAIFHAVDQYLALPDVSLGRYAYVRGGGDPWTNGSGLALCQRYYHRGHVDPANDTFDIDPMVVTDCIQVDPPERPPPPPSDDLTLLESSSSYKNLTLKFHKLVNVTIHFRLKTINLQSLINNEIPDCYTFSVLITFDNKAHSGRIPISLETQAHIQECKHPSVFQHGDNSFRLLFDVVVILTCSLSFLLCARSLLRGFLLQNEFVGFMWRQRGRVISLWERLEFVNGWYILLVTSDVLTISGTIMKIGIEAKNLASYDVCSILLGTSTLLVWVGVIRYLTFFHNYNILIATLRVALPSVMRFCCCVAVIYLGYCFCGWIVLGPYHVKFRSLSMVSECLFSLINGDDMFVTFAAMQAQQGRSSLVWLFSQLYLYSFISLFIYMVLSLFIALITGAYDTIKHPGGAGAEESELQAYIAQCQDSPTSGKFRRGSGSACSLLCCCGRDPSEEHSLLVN
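Calcium fluorescence in TRPML1-DL cells induced overnight with Tet: a 110 s read after compound pin addition, then a 110 s antagonist read after challenge with 54-4 at 4 uM final (EC80).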
TRPML1 agonist – agonists of human TRPML1 channel. 410,000 compounds, 0.12% hits. Q9GZU1. activation, % (no concentration beside the values). TRPML1-expressing cells, Ca2+ dye fluorescence, FDSS; host cell line not named in the record; reference of the full effect not given here; in the data active = activation above about 50%; inconclusive = about 30% to 50%; inactive = below about 30%; also: 0% is about no effect; the text of the record puts the active cut at 80%
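Calcium fluorescence on an FDSS kinetic reader gave the read-out. Tet-induced TRPML1-DL cells were plated overnight, dye-loaded (Ca8 with quencher, 45-90 min, room temperature, dark), then read 110 s after compound addition, and again 110 s after 4uM final 54-4 (EC80).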
Six1-Eya2 inh – Six1/Eya2 interaction inhibition; Q15475+O00167; AlphaScreen GST-Six1/His-Eya2 binding, biochemical; stronger effect = lower value; control for the full effect not named in the record; AID 651725; activity change, % (no concentration beside the values); 360,000 compounds, 0.56% hits; in the data active = activity change below about -65%; inconclusive = about -30% to -65%; inactive = above about -30%; also: % is scaled to controls: 0 for no effect and ±100 for the full control effect
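GST-Six1 + His-Eya2 (5X stock: 250/500 nM); Tris pH 8.0, 300 mM NaCl, 0.05% BSA, 0.02% Tween 20; GSH donor/Ni acceptor beads; 1 h 37 °C dark; AlphaScreen readout.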
Starred values were filed as active, the others as inactive; & = joins results of further samples; [ ] = another dose, or the depositor's remark.

Start of the data: the first 4 compounds (preview)
What do the screens show for `CCOC(=O)C1=C(C)C2C3C(=O)N(c4cc(C)ccc4C)C(=O)C3C1(C)C1C(=O)N(c3cc(C)ccc3C)C(=O)C21` (stereo not drawn)?
D2 ag: -3.2; PINK1 expr mod: -2.5%; CtBP-E1A blk: -1; TRPML1 blocker: -22; TRPML1 agonist: 1.9; Six1-Eya2 inh: -7

Results for Cc1nc2scc(C)n2c(=O)c1S(=O)(=O)Nc1cccc(C(F)(F)F)c1 ?
PINK1 expr mod: -0.1%; TRPML1 blocker: -13; TRPML1 agonist: 0.0

Results for CCOc1ccc(-c2csc(NC(=O)c3cccc(N4C(=O)CCC4=O)c3)n2)cc1 ?
D2 ag: 0.8; PINK1 expr mod: 15%; CtBP-E1A blk: 3; TRPML1 blocker: -9; TRPML1 agonist: 0.9; Six1-Eya2 inh: -5

How did C=CCNC(=O)c1ccc(CN2CCC(Cc3ccccc3)CC2)cc1 do in these assays?
D2 ag: -5.6; PINK1 expr mod: 3.3%; CtBP-E1A blk: 4; TRPML1 blocker: -12; TRPML1 agonist: -0.6; Six1-Eya2 inh: -6

The listing, repeating the preview:
What do the screens show for `CCOC(=O)C1=C(C)C2C3C(=O)N(c4cc(C)ccc4C)C(=O)C3C1(C)C1C(=O)N(c3cc(C)ccc3C)C(=O)C21` (stereo not drawn)?
D2 ag: -3.2; PINK1 expr mod: -2.5%; CtBP-E1A blk: -1; TRPML1 blocker: -22; TRPML1 agonist: 1.9; Six1-Eya2 inh: -7

Results for Cc1nc2scc(C)n2c(=O)c1S(=O)(=O)Nc1cccc(C(F)(F)F)c1 ?
PINK1 expr mod: -0.1%; TRPML1 blocker: -13; TRPML1 agonist: 0.0

Results for CCOc1ccc(-c2csc(NC(=O)c3cccc(N4C(=O)CCC4=O)c3)n2)cc1 ?
D2 ag: 0.8; PINK1 expr mod: 15%; CtBP-E1A blk: 3; TRPML1 blocker: -9; TRPML1 agonist: 0.9; Six1-Eya2 inh: -5

How did C=CCNC(=O)c1ccc(CN2CCC(Cc3ccccc3)CC2)cc1 do in these assays?
D2 ag: -5.6; PINK1 expr mod: 3.3%; CtBP-E1A blk: 4; TRPML1 blocker: -12; TRPML1 agonist: -0.6; Six1-Eya2 inh: -6

How did COc1ccc(Cc2nc3ccc(C(=O)N4CCOCC4)cc3o2)cc1 do in these assays?
D2 ag: -3.8; PINK1 expr mod: 7.2%; CtBP-E1A blk: -4; TRPML1 blocker: -2; TRPML1 agonist: 0.1; Six1-Eya2 inh: -16

How did COCCn1cnc2c1c(=O)n(CC(=O)NN)c(=O)n2Cc1ccccc1 do in these assays?
D2 ag: -3.5; PINK1 expr mod: 0.9%; CtBP-E1A blk: 2; TRPML1 blocker: 19; TRPML1 agonist: 0.1; Six1-Eya2 inh: 2

How did CC(C)(C)n1cnnc1Sc1ncccc1[N+](=O)[O-] do in these assays?
D2 ag: -2.4; PINK1 expr mod: -0.7%; TRPML1 blocker: 28; TRPML1 agonist: -0.4; Six1-Eya2 inh: 5

What do the screens show for `O=C(Cn1c(=O)oc2cc(S(=O)(=O)N3CCCC3)ccc21)N1CCN(C2CCCCC2)CC1`?
D2 ag: -4.8; PINK1 expr mod: -0.5%; CtBP-E1A blk: 2; TRPML1 blocker: -2; TRPML1 agonist: -0.4; Six1-Eya2 inh: -7

How did COC(=O)c1c(NC(=O)c2ccco2)sc2c1CCC2 do in these assays?
D2 ag: -6.4; PINK1 expr mod: -2.3%; CtBP-E1A blk: 24; TRPML1 blocker: 27; TRPML1 agonist: -1.0; Six1-Eya2 inh: 11

Results for CCCn1c(=N)c(C(=O)NC(C)c2ccccc2)cc2c(=O)n3ccccc3nc21 (stereo not drawn) ?
PINK1 expr mod: -0.2%; TRPML1 blocker: 31; TRPML1 agonist: 0.2

How did COc1ccccc1N1CCN(C(=O)Cn2nc(C(F)(F)F)c3c2CCC3)CC1 do in these assays?
D2 ag: 0.0; PINK1 expr mod: -0.7%; CtBP-E1A blk: -3; TRPML1 blocker: -6; TRPML1 agonist: 0.5; Six1-Eya2 inh: 13

What do the screens show for `Cn1c(NCc2cccnc2)nc2c1c(=O)n(Cc1ccccc1F)c(=O)n2C`?
D2 ag: 0.2; PINK1 expr mod: 4.6%[38.3 µM]; CtBP-E1A blk: -27; TRPML1 blocker: 14; TRPML1 agonist: -0.6; Six1-Eya2 inh: -22

What do the screens show for `O=C(C1=C(O)C(=O)N(Cc2ccccc2)C1c1ccco1)c1ccco1` (stereo not drawn)?
D2 ag: -1.5; PINK1 expr mod: 0.6%; CtBP-E1A blk: -1; TRPML1 blocker: 3; TRPML1 agonist: 0.0; Six1-Eya2 inh: 27

How did COc1ccc(C(=O)NCC(C)(C)N2CCOCC2)cc1S(=O)(=O)NCc1ccc(Cl)cc1 do in these assays?
D2 ag: 5.3; PINK1 expr mod: 1.0%; CtBP-E1A blk: -1; TRPML1 blocker: 13; TRPML1 agonist: 1.2; Six1-Eya2 inh: 10

What do the screens show for `COc1ccc(N2C(=O)CSC2c2ccc(F)cc2)cc1` (stereo not drawn)?
D2 ag: 3.7; PINK1 expr mod: 0.9%; CtBP-E1A blk: 6; TRPML1 blocker: 6; TRPML1 agonist: -1.1; Six1-Eya2 inh: 3

Results for Cc1nn(-c2ccc(F)cc2)c2sc(C(=O)N3CCCCCC3)cc12 ?
D2 ag: -1.4; PINK1 expr mod: -0.1%; CtBP-E1A blk: -2; TRPML1 blocker: -5; TRPML1 agonist: -0.7; Six1-Eya2 inh: 6

How did O=S1(=O)c2ccccc2C(CCO)N1Cc1ccccc1 (stereo not drawn) do in these assays?
D2 ag: 0.0; PINK1 expr mod: 0.4%; CtBP-E1A blk: -8; TRPML1 blocker: -13&-10; TRPML1 agonist: 0.8&-0.1; Six1-Eya2 inh: 2

What do the screens show for `O=C(NCCCN1CCOCC1)c1cc(S(=O)(=O)N2CCOCC2)ccc1Cl`?
D2 ag: -1.7; PINK1 expr mod: 3.8%; CtBP-E1A blk: 9; TRPML1 blocker: 8; TRPML1 agonist: -0.5; Six1-Eya2 inh: 5

Results for Nc1nnnn1/N=C/c1cc(Cl)ccc1O ?
D2 ag: 13; PINK1 expr mod: 0.0%; TRPML1 blocker: -22; TRPML1 agonist: 6.2; Six1-Eya2 inh: inconclusive

Results for CC(C)c1ccc(C(C)NCCS(=O)(=O)c2ccc(Cl)cc2)cc1 (stereo not drawn) ?
D2 ag: 0.6; PINK1 expr mod: 4.5%; CtBP-E1A blk: -3; TRPML1 blocker: 17; TRPML1 agonist: 0.1; Six1-Eya2 inh: 4

What do the screens show for `C/C=C/c1ccc(OCCOc2ccc(C=O)cc2)c(OC)c1`?
D2 ag: -0.8; PINK1 expr mod: 1.8%; CtBP-E1A blk: 13; TRPML1 blocker: 4; TRPML1 agonist: -0.1; Six1-Eya2 inh: 12

How did CC(C)Cn1c(CCNC(=O)c2ccco2)nc2ccccc21 do in these assays?
D2 ag: -3.5; PINK1 expr mod: 0.2%; CtBP-E1A blk: 9; TRPML1 blocker: -5; TRPML1 agonist: -0.7; Six1-Eya2 inh: 4

How did O=C(COC(=O)c1ccc(F)cc1)NCC1CCCCC1 do in these assays?
D2 ag: -0.7; PINK1 expr mod: 2.7%; CtBP-E1A blk: 5; TRPML1 blocker: 4; TRPML1 agonist: 1.6; Six1-Eya2 inh: 6

How did CCN(C(=O)/C=C/c1ccc(OC)cc1)C1CCS(=O)(=O)C1 (stereo not drawn) do in these assays?
D2 ag: -1.4; PINK1 expr mod: 2.3%; CtBP-E1A blk: 1; TRPML1 blocker: -23; TRPML1 agonist: 0.1; Six1-Eya2 inh: 9

Results for CCCN(CCC)C(=O)c1nn(C)c2c1CSc1ccc(C)cc1-2 ?
PINK1 expr mod: 2.2%; TRPML1 blocker: 7; TRPML1 agonist: -0.5

Results for CCSc1nsc(NC(=O)Nc2ccc(F)cc2F)n1 ?
D2 ag: 0.6; PINK1 expr mod: 22µM*; TRPML1 blocker: 12; TRPML1 agonist: 0.0; Six1-Eya2 inh: -2

Results for O=C(c1ccc2[nH]c(=O)c(=O)[nH]c2c1)N1CCc2ccccc21 ?
D2 ag: 7.3; PINK1 expr mod: 3.0%; TRPML1 blocker: 22; TRPML1 agonist: -0.8; Six1-Eya2 inh: -10

Results for NC(=O)c1ccccc1NC(=O)CSc1nc2ccccc2c(=O)[nH]1 ?
D2 ag: -3.3; PINK1 expr mod: -1.6%; CtBP-E1A blk: 0; TRPML1 blocker: 10; TRPML1 agonist: 0.1; Six1-Eya2 inh: -11

Results for O=Cc1cc2cc3c(cc2nc1Cl)OCCO3 ?
D2 ag: -4.8; PINK1 expr mod: -0.5%; CtBP-E1A blk: 7; TRPML1 blocker: 1; TRPML1 agonist: 2.8; Six1-Eya2 inh: 1

How did Cc1ccc2nc(SC(C)C(=O)NCc3ccc4c(c3)OCO4)[nH]c2c1 (stereo not drawn) do in these assays?
D2 ag: -1.8; PINK1 expr mod: -1.6%; CtBP-E1A blk: -8; TRPML1 blocker: -1; TRPML1 agonist: 2.7; Six1-Eya2 inh: 10

How did O=C(c1ccc(N2CCCCC2)c([N+](=O)[O-])c1)N1CCN(c2ccccn2)CC1 do in these assays?
D2 ag: -2.4; PINK1 expr mod: 3.4%; CtBP-E1A blk: -4; TRPML1 blocker: -5; TRPML1 agonist: 0.6; Six1-Eya2 inh: -21

What do the screens show for `O=C(/C=C/c1ccc(F)cc1)NCc1cccs1`?
D2 ag: -1.5; PINK1 expr mod: -0.8%; CtBP-E1A blk: 1; TRPML1 blocker: 26; TRPML1 agonist: 1.7; Six1-Eya2 inh: 12

Results for CCc1ccc(-n2nc(CO)c(C(=O)NCc3ccccn3)n2)cc1 ?
PINK1 expr mod: 0.1%; TRPML1 blocker: 18; TRPML1 agonist: 1.8

How did CC(C)(C)C(=O)NC1CC2CCCC(C1)N2C(=O)Nc1ccccc1F (stereo not drawn) do in these assays?
D2 ag: 2.8; PINK1 expr mod: 1.3%; CtBP-E1A blk: -8; TRPML1 blocker: -5; TRPML1 agonist: -0.3; Six1-Eya2 inh: -1

Results for O=C(c1cc(-c2ccncc2)nc2ccccc12)N1CCN(c2ccccn2)CC1 ?
D2 ag: -1.3; PINK1 expr mod: 27%[38.3 µM]; CtBP-E1A blk: -7; TRPML1 blocker: 16; TRPML1 agonist: -0.4; Six1-Eya2 inh: -2

Results for CN(C)c1ccc(CNc2nc(-c3ccco3)nn2S(C)(=O)=O)cc1 ?
PINK1 expr mod: 1.8%; TRPML1 blocker: 18; TRPML1 agonist: -0.3

What do the screens show for `C(=C\c1ccccc1)/CN1CCN(C(c2cc3ccccc3o2)c2nnnn2C2CCCC2)CC1` (stereo not drawn)?
D2 ag: -5.7; PINK1 expr mod: 6.5%; CtBP-E1A blk: -2; TRPML1 agonist: 0.1; Six1-Eya2 inh: 7

What do the screens show for `CN(C)c1ccc(-n2cccc2/C=N/n2cnnc2)cc1`?
D2 ag: -1.8; PINK1 expr mod: 2.4%; CtBP-E1A blk: -1; TRPML1 blocker: 41; TRPML1 agonist: 1.6; Six1-Eya2 inh: -18
